Source: PubChem BioAssay (National Center for Advancing Translational Sciences (NCATS))
Cruzain noTriton = blocks cruzain activity in detergent-free assay | Potency, µM, for the others: max response, negative = inhibition, hits mostly inhibitors | 2.3% of 200,000 active | AID 1476 | purified cruzain, Z-FR-AMC fluorescence, no detergent | P25779;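 further: plate controls were enzyme without inhibitor for no effect and buffer without enzyme for full effect; nearly all actives have a fitted effect of over 40% in size; top concentration of the series not given in the record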
Target sequence (P25779 123-467 limits assumed): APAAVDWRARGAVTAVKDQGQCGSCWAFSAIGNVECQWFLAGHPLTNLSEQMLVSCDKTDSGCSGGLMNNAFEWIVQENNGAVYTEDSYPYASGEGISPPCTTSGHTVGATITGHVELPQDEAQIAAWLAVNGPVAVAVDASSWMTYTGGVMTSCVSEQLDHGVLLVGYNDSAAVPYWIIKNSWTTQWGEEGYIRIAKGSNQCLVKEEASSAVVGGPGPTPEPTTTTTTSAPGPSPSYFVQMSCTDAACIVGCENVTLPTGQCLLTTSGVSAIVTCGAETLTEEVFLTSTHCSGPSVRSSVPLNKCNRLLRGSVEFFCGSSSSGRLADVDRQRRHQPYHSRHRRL
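Detergent-free condition (0.00005% Triton X-100) in acetate buffer pH 5.5 with DTT. 1.5 nM enzyme and compound were pre-mixed 15 min, then 2 uM Z-FR-AMC substrate added; reaction progress from fluorescence change between first and third reads (60 s).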
Cruzain Triton = cruzain (T. cruzi) inhibition with detergent; Potency, µM, without a hit: max response, negative = inhibition, actives largely listed as inhibitors; P25779; purified cruzain, Z-FR-AMC fluorescence, 0.01% Triton; 0.43% of 200,000 active;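 further: plate controls were neutral wells for no effect and buffer without enzyme for full effect; nearly all actives have a fitted effect of over 40% in size; top concentration of the series not given in the record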
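Read-out: AMC fluorescence (360 nm excitation, 450 nm emission), four reads over 2 min, first-to-third difference used. Conditions: cruzain 1.5 nM, Z-FR-AMC 2 uM, pH 5.5 acetate, 5 mM DTT, 0.01% Triton X-100.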
StopGo reporter = lowers the luciferase signal of an FMDV 2A StopGo reporter | 1.2% of 410,000 active | AID 1159524 | Potency, µM (highest dose often 57.9 µM), for inactives: at the highest dose signal change, negative = less light | human cells with a luciferase reporter of 2A StopGo recoding; control for the full effect not named in the record; active = well fitted falling curve with a large enough effect; inconclusive = small, poorly fitted or top-dose-only effect; inactive = no such curve, though single readings can be large or run the other way; tested in HEK293T cells; further: on the % scale 0 is the no-effect control and ±100 the full control effect; nearly all actives have a fitted effect of over 45% in size; luciferase light after 4 h
SARS PLpro yeast = SARS-CoV PLP inhibition in yeast; 0.19% of 330,000 active; S. cerevisiae expressing SARS-CoV PLpro, growth rescue; control for the full effect not named in the record; Potency, µM (top dose mostly 32.9 µM), for the others: top-dose activity, positive = growth rescue; AID 485353; active means well fitted rising curve with a large enough effect; inconclusive means small, poorly fitted or top-dose-only effect; inactive means no such curve, though single readings can be large or run the other way; further: 0% is about no effect; nearly all actives have a fitted effect of over 55% in size; growth read by luminescence after 48 h
LASV entry inh = Lassa virus entry inhibition; AID 540256; Potency, µM (top dose mostly 37.9 µM), for inactives: at the highest dose activity change, negative = inhibition, most hits filed as inhibitors; 1.2% of 300,000 active; Lassa virus pseudotype entry inhibition, cell reporter; control for the full effect not named in the record; active means well fitted inhibition curve with a large enough effect; inconclusive means small, poorly fitted or top-dose-only effect, or effect the other way; inactive means flat fitted curve, though single readings scatter; tested in HEK293 cells; further: on the % scale 0 is the no-effect control and ±100 the full control effect; nearly all actives have a fitted effect of over 50% in size; luciferase read-out
MARV entry inh = blocks Marburg virus binding to or entry into cells | 1.8% of 300,000 active | Marburg virus pseudotyped entry inhibition, cell reporter; control for the full effect not named in the record; about a third of the inactives were read at about 46 µM | Potency, µM (series often up to 37.8 µM), inactives show at the top dose activity change, negative = inhibition, hits mostly inhibitors | AID 540276; active = well fitted inhibition curve with a large enough effect; inconclusive = small, poorly fitted or top-dose-only effect, or effect the other way; inactive = flat fitted curve, though single readings scatter; tested in HEK293 cells; about a fifth of its hits are not listed in these tables; further: on the % scale 0 is the no-effect control and ±100 the full control effect; luciferase read-out
NS1 function inh = influenza NS1 inhibition | 0.4% of 270,000 active | Potency, µM (highest dose often 46.1 µM), for inactives: at the highest dose activity, positive = more growth | S. cerevisiae slowed by influenza A NS1, growth recovery by OD600 | AID 2326; active means well fitted rising curve with a large enough effect; inconclusive means small, poorly fitted or top-dose-only effect; inactive means no such curve, though single readings can be large or run the other way; further: nearly all actives have a fitted effect of over 50% in size
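In this qHTS, NS1 from influenza A is expressed in budding yeast, where it slows growth. Cells are switched from glucose to 2% galactose medium (pH 6.0, -URA), treated with compound, and growth recovery is read at OD600.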
RE007 growth inh = less growth of the S. pombe RE007 Vpr strain | S. pombe RE007 Vpr strain, BacTiter-Glo ATP luminescence, 24 h; control for the full effect not named in the record | Potency, µM (doses to about 92.2 µM), inactives show at the top dose activity change, negative = less growth | 0.21% of 360,000 active; active = well fitted falling curve with a large enough effect; inconclusive = small, poorly fitted or top-dose-only effect; inactive = no such curve, though single readings can be large or run the other way;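 further: on the % scale 0 is the no-effect control and ±100 the full control effect; nearly all actives have a fitted effect of over 50% in size; the assay follows cell death caused by Vpr and the record does not say whether a fall means rescue or toxicity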
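Fission yeast RE007 carrying one integrated HIV-1 vpr copy, seeded at OD 0.01 in PMG+AL medium with 23 nL pinned compound. Grown 24 h at 30 degrees; viability read by BacTiter-Glo luminescence after 5 min.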
Active calls of the source: *; ? = inconclusive; . = not tested or not shown; [ ] = another dose, or the depositor's remark. Unless noted, the call rests on the fitted dose curve; in most records, active means well fitted curve in the direction sought with a large enough effect; inconclusive means small, poorly fitted or top-dose-only effect, or another doubt; inactive means no such curve, though single readings can be large; an effect the other way counts as inactive or inconclusive. Potency means the concentration at half of the fitted maximal effect. An unsorted share of the library; any-hit rate near 4.7%.

SMILES	Cruzain noTriton	Cruzain Triton	StopGo reporter	SARS PLpro yeast	LASV entry inh	MARV entry inh	NS1 function inh	RE007 growth inh
Cc1ccc(-c2cc(N)n(Cc3ccc(Cl)cc3)n2)cc1	3.2%	-6.0%	-14.5%	-6.4%	-14.6%	?	5.01µM*	-19.9%
CCCCn1c(CNC(C)=O)nc2ccccc21	-8.8%	-1.3%	0.0%	2.1%	.	.	-8.0%	8.8%
O=C(O)c1ccc(-n2ncc3c2/C(=C/c2cccc([N+](=O)[O-])c2)CC3)cc1	.	.	68.9%[activator]	-1.8%	.	-6.8%	-33.8%	1.1%
Cc1ccc(N2CCN(S(=O)(=O)c3c(C)nc4scc(C)n4c3=O)CC2)c(C)c1	.	.	-21.0%	-14.1%	.	.	0.0%	2.4%
CC(=O)c1cc(C#N)c(N2CCCC2)nc1C	.	.	-4.5%	-0.1%	9.7%	11.2%[14.2 µM]	.	0.5%
Cc1nc2cc(NC(=O)N3CC4(C)CC3CC(C)(C)C4)ccc2n1C (centres undefined)	1.2%	2.0%	.	-9.1%	2.6%	10.6%	-9.3%	0.6%
Cc1ccc(/C=N\NC(=O)CNC(=O)C23CC4CC(CC(C4)C2)C3)o1	.	.	-11.8%	-4.3%	5.1%	?	14.7%	2.5%
Cc1cc(S(=O)(=O)N2CCCC2)c(C)s1	-8.0%	-1.2%	-4.7%	-4.9%	10.7%	2.1%	-7.9%	4.8%
O=C(CC12CC3CC(CC(Br)(C3)C1)C2)NCc1ccccc1	.	.	-11.4%	1.0%	1.3%[46.1 µM]	-0.7%[46.1 µM]	-1.5%	0.8%
COc1ccccc1CN1CC(C(=O)NCc2c(F)ccc(C)c2F)CCC1=O (centres undefined)	.	.	32.1%[activator]	-0.7%	.	.	12.4%	-11.2%
COc1ccc(CNC(=O)CN2C(=O)CSc3ccc(S(=O)(=O)N4CCC(C)CC4)cc32)cc1	11.5%	0.8%	-5.9%	.	-0.6%[46.1 µM]	.	.	.
COc1ccc(NC(=O)CN2C(=O)C(C)(C)c3cc(S(=O)(=O)N4CCCCC4)ccc32)cc1Cl	9.4%	-3.0%	25.9%	.	?	.	.	.
Cc1cc(NC(=O)CSCC(=O)OCc2nnc(-c3ccc(F)cc3)o2)no1	.	.	-6.6%	3.0%	7.6%	?	.	-13.6%
N#Cc1c(-c2cccs2)nc(SCC(=O)c2ccc(Br)cc2)[nH]c1=O	.	.	5.8%	2.9%	-16.7%[46.1 µM]	-3.0%[46.1 µM]	3.16µM*	2.2%
Cc1sc(NC(=O)c2ccco2)c(CN2CCCCC2)c1C	13.1%	-1.6%	2.6%	?	?	?	-3.5%	-1.2%
O=C(NNC(=O)c1cc(O)c(O)c(O)c1)NC1CCCCC1	-5.0%	0.9%	-20.1%	-1.2%	9.2%	21.0%	-8.5%	6.6%
CC1(C)Cc2c(sc(NC(=O)c3ccc(C(=O)c4ccccc4)cc3)c2C(N)=O)C(C)(C)N1	.	.	-28.8%	-10.8%	?	?	-14.7%	9.0%
CCN(C(=O)COC(=O)c1ccco1)c1c(N)n(Cc2ccccc2)c(=O)[nH]c1=O	.	.	-3.4%	6.7%	-0.5%	-0.5%	.	0.0%
COc1ccc(CNC(=O)N2CCN(S(=O)(=O)c3ccccc3F)CC2)cc1	.	.	-1.8%	0.5%	0.2%	9.2%	-2.0%	-15.5%
CCOc1ccc(NC(=O)CCc2c(C)nc3nc(-c4cc(OC)cc(OC)c4)nn3c2C)cc1	-3.6%	1.8%	?	.	2.6%[46.1 µM]	-0.2%[46.1 µM]	.	.
c1ccc(Oc2nc(-c3ccccn3)nc3ccccc23)cc1	.	.	-9.2%	-3.6%	?	?	-59.2%	-17.1%
NC(=O)CN1C(=O)C(=O)N(Cc2ccc(F)cc2)C1=O	.	.	-8.1%	-1.3%	.	.	2.8%	-5.9%
Cc1ccc(SCCC(=O)Nc2nccs2)cc1	.	.	-2.1%	4.0%	1.4%[46.1 µM]	3.5%[46.1 µM]	.	7.9%
CCOc1ccc(-c2nc3c(c(SCC(=O)N4CCCCC4)n2)Cc2cc(C)ccc2O3)cc1	-14.8%	-0.9%	10.0%	.	-5.0%[46.1 µM]	5.8%[46.1 µM]	.	.

One compound at a time, as listed above:
COc1ccccc1CN1CC(C(=O)NCc2c(F)ccc(C)c2F)CCC1=O (centres undefined) in the list: Cruzain noTriton = .; Cruzain Triton = .; StopGo reporter = 32.1%[activator]; SARS PLpro yeast = -0.7%; LASV entry inh = .; MARV entry inh = .; NS1 function inh = 12.4%; RE007 growth inh = -11.2%
Cc1ccc(SCCC(=O)Nc2nccs2)cc1 in the list: Cruzain noTriton = .; Cruzain Triton = .; StopGo reporter = -2.1%; SARS PLpro yeast = 4.0%; LASV entry inh = 1.4%[46.1 µM]; MARV entry inh = 3.5%[46.1 µM]; NS1 function inh = .; RE007 growth inh = 7.9%

The main list resumes with the 2 entries that preceded the break.
SMILES	Cruzain noTriton	Cruzain Triton	StopGo reporter	SARS PLpro yeast	LASV entry inh	MARV entry inh	NS1 function inh	RE007 growth inh
Cc1ccc(SCCC(=O)Nc2nccs2)cc1	.	.	-2.1%	4.0%	1.4%[46.1 µM]	3.5%[46.1 µM]	.	7.9%
CCOc1ccc(-c2nc3c(c(SCC(=O)N4CCCCC4)n2)Cc2cc(C)ccc2O3)cc1	-14.8%	-0.9%	10.0%	.	-5.0%[46.1 µM]	5.8%[46.1 µM]	.	.
COc1cc(CC(=O)NC(c2ccccc2)c2ccccc2)cc(OC)c1OC	.	.	-19.3%	-4.9%	-44.3%	-28.8%[46.1 µM]	-25.9%	-6.6%
CCOC(=O)CN1C(=O)S/C(=C/c2ccco2)C1=O	.	.	49.1%[activator]	0.3%	?	3.6%	-23.6%	-1.4%
COc1ccccc1N1CCN(/N=C/c2ccccc2C(=O)O)CC1	.	.	10.5%	-5.4%	.	.	6.7%	-12.1%
CCOc1cc(/C=C2/SC(=S)N(CC3CCCO3)C2=O)ccc1O (centres undefined)	.	.	-0.4%	4.0%	9.2%	7.0%	8.6%	10.1%
C=CCOc1ccc(Br)cc1CNC(C)(C)C	.	.	-5.4%	0.4%	-6.6%	-25.8%[46.1 µM]	1.8%	-3.0%
Cc1cc(=O)[nH]c(-n2ncc(C#N)c2N)n1	.	.	-16.3%	-2.9%	.	-0.4%[46.1 µM]	.	14.1%
CC(NC(=O)c1ccc(F)cc1F)C1CC2CCC1C2 (centres undefined)	.	.	3.7%	-2.5%	0.1%[46.1 µM]	4.4%[46.1 µM]	-7.4%	19.7%
COc1ccc(C(=O)/C=C/C(=O)N(CC(=O)NCCC(C)C)Cc2cccs2)c(O)c1	.	.	3.55µM*	-1.1%	?	20.6µM*	-33.8%	0.7%
CC1CCN(C(=O)C2CCN(S(=O)(=O)c3cccs3)CC2)CC1	.	.	46.0%[activator]	-0.9%	-0.7%	?	-0.9%	5.7%
NC(=O)Cn1cnc2nc3n(c2c1=O)CCC3	.	.	-8.7%	0.6%	-23.2%	7.8%[46.1 µM]	3.7%	-4.4%
Cc1[nH]c2ccccc2c1CC#N	.	.	0.5%	1.2%	-8.7%[46.1 µM]	?	-2.3%	28.6%
COc1ccccc1NC(=O)c1ccc[n+]([O-])c1	.	.	-9.7%	1.2%	.	.	4.5%	7.7%
COc1ccc(CCNC(=O)C2CC(=O)N(CCc3ccc(C)cc3)C2)cc1OC (centres undefined)	.	.	-16.7%	-2.9%	-27.4%[46.1 µM]	-6.1%[46.1 µM]	.	-11.2%
Cc1cccc(C(=O)N[C@H](C(=O)Nc2ccc(C)c(S(=O)(=O)N3CCOCC3)c2)C(C)C)c1	.	.	-8.1%	11.9%	-13.8%	?	.	0.7%
O=C(NCc1ccccn1)C1CCCN(S(=O)(=O)c2ccc(Br)cc2)C1 (centres undefined)	5.2%	2.3%	0.0%	.	-13.4%	-29.9%	-7.6%	11.6%
Clc1ccc(-c2csc(-c3ccncc3)n2)cc1	.	.	40.6%[activator]	-13.4%	14.1%	6.6%	.	-15.9%
Cc1cccc(NC(=O)CSCC(=O)Nc2cccc3ncccc23)c1	.	.	-22.6%	1.1%	-5.7%	3.0%	.	-17.6%
Cc1ccc(N(CC(=O)NC2CCC(C)CC2)S(=O)(=O)c2cccnc2)cc1 (centres undefined)	11.2%	2.0%	-4.8%	1.8%	.	.	-51.9%	11.1%
O=C(O)CCC(=O)c1cccc2ccccc12	-8.8%	-1.9%	-8.4%	-0.3%	?	?	-48.9%	-9.7%
COc1ccc(/C=C2/N=C(c3cccs3)OC2=O)cc1OC(C)C	7.6%	?	16.5%	4.3%	6.2%	-1.1%	10.1%	-1.0%
CCOc1cc(NC(=O)c2ccco2)c(OCC)cc1NC(=O)COc1ccccc1	-9.6%	-1.7%	-22.3%	-2.0%	?	-28.8%	-3.3%	-1.3%
Cc1ccc(Cn2c(=O)c3ccccc3n3nc(C)cc23)cc1	.	.	-5.8%	0.3%	.	0.2%[46.1 µM]	3.6%	14.3%
Cc1ccc(S(=O)(=O)N2CCCC2C(=O)Oc2ccccc2)cc1 (centres undefined)	1.5%	0.6%	4.2%	-9.8%	-14.0%	17.9%	-76.4%	10.3%
COc1ccc(N2CCN(C(=O)CN3C(=O)COc4ccc(S(=O)(=O)N5CCC(C)CC5)cc43)CC2)cc1	?	-2.9%	1.0%	.	5.7%[46.1 µM]	-12.7%[46.1 µM]	.	.
COCCNC(=O)/C(C#N)=C/c1c(N2CCN(c3ccccc3)CC2)nc2ccccn2c1=O	.	.	34.8%[activator]	1.2%	.	.	-6.4%	1.3%
CCn1c(CNc2cccc(Cl)c2)nnc1SCc1ccccc1	-1.4%	-2.2%	-3.3%	-8.5%	?	?	-26.6%	2.2%
Cc1ccc(C(C)C)c(OCCCNCc2cccnc2)c1	.	.	-11.0%	0.9%	-16.3%	?	-2.5%	-9.4%
COc1ccc(C(=O)NCc2ccc(Cl)c(Cl)c2)cc1OC	1.0%	-5.2%	-19.3%	-11.3%	-1.1%	0.1%	-11.3%	.
